High-throughput results deposited in PubChem by National Center for Advancing Translational Sciences (NCATS).
2A Renilla – Primary qHTS Assay for Foot and Mouth Disease Virus Antivirals against NCGC Sytravon and CBC Compound Libraries: Renilla Luciferase Signal | Potency, µM (top dose mostly 57.5 µM), inactives show top-dose signal change, negative = less light | AID 1745857, 2022 | HEK cells with a luciferase reporter of 2A StopGo recoding | actives 0.32% (n = 120,000); active means well fitted falling curve with a large enough effect; inconclusive means small, poorly fitted or top-dose-only effect; inactive means no such curve, though single readings can be large or run the other way; further: nearly all actives have a fitted effect of over 55% in size; overnight with compound
StopGo FLuc – Primary qHTS Assay for Foot and Mouth Disease Virus Antivirals against NCGC Sytravon and CBC Compound Libraries: Firefly Luciferase Signal | HEK cells with a luciferase reporter of 2A StopGo recoding | Potency, µM (highest dose often 57.5 µM), for inactives: at the highest dose signal change, negative = less light | actives 0.23% (n = 120,000) | AID 1745856, 2022; active = well fitted falling curve with a large enough effect; inconclusive = small, poorly fitted or top-dose-only effect; inactive = no such curve, though single readings can be large or run the other way; further: nearly all actives have a fitted effect of over 60% in size; overnight with compound
* = called active by the depositor; ? = inconclusive; & = joins results of further samples; [ ] = remark or other dose. On the % scale 0 is the no-effect control and ±100 the full control effect; potency means the concentration at half of the fitted maximal effect. Only part of the results is shown; rates above refer to the full screens.

Results follow in this order: StopGo FLuc | 2A Renilla
CC(=O)c1cccc(NC(=O)c2ccc3c(c2)NC(=O)C2CCCN32)c1 (stereo not given)
→ 49%[activator] | -10%
COc1ccccc1NC(=O)c1cnc(SCC(=O)N2CCCc3ccccc32)n(C)c1=O
→ -25% | -12%
Cc1cccc(NC(=O)c2cc(=O)c3c(C)cc(C)cc3o2)c1
→ 15% | 10%
CC(=O)c1cccc(NC(=O)c2nc(-c3ccccc3)n(-c3ccccc3C)n2)c1
→ -15% | -7%
O=C(Nc1ccc2c(c1)CCC2)c1ccc(F)cc1F
→ 130%[activator] | 4%
CCCc1cc(=O)oc2cc(OCc3cc(C)ccc3C)ccc12
→ 0% | 19%
O=C(Cn1cnc2cc(F)ccc2c1=O)N(Cc1cccs1)c1ccc2c(c1)OCCO2
→ 4% | 12%
COc1ccc(C(C)=O)cc1COc1ccc2ccc(=O)oc2c1
→ 8% | 2%
C(=N\C(/N=C/c1ccccc1)c1ccccc1)/c1ccccc1
→ 9% | 7%
CC(=O)Nc1cccc(NC(=O)C(=O)N2CCN(C(=O)c3cc4ccccc4[nH]3)CC2)c1
→ 46%[activator] | 19%
Cc1ccc(S(=O)(=O)N2CCC(C(=O)N3CCC(CCc4ccc(O)cc4)CC3)CC2)c(C)c1
→ ? | ?
CCSc1ncc(Cl)c(C(=O)Nc2sc3c(c2C(=O)NC)CCCC3)n1
→ -20% | -13%
COc1cc(SC)ccc1C(=O)OCC(=O)NCc1ccco1
→ 0% | 2%
Cc1nn(C)c2c1c(-c1ccccc1)cc(=O)n2Cc1c(F)cccc1Cl
→ -16% | -12%
O=C(Cn1c(=O)n(-c2ccccc2)c(=O)c2ccc(C(=O)NCc3ccc4c(c3)OCO4)cc21)Nc1ccc(F)cc1
→ -1% | 204%[activator]
Cc1nc2ccc(NC(=O)c3nn(C(C)C)c(=O)c4ccccc34)cc2s1
→ 36%[activator] | 30%
Cc1c2cnn(CC(=O)N3CCN(c4ccccc4)CC3)c(=O)c2c(C)n1Cc1ccccc1Cl
→ 0% | -16%
CCC(Sc1nnc(-c2ccc(OC)cc2)c(-c2ccc(OC)cc2)n1)C(=O)NC1CCCCC1 (stereo not given)
→ -1% | 2%
Cc1ccc2cc(CN(C)C(=O)c3cccc(Cl)c3)c(=O)[nH]c2c1
→ 7%&-8% | -4%&-7%
Cc1cc(NC(=O)CSc2nnnn2-c2ccc(C)c(C)c2)n(-c2ccccc2)n1
→ -7% | -5%
N#Cc1nc(-c2ccccc2)oc1NCc1ccc2c(c1)OCO2
→ 0% | 78%[activator]
CCN1CCOC(=O)C1CC(=O)Nc1ccc(C(C)=O)cc1 (stereo not given)
→ -24% | -20%
CCOC(=O)CSc1nc2ccc(NC(=O)c3cccc(F)c3)cc2s1
→ 41%[activator] | -5%
CCn1cnc2c1c(=O)n(CC(=O)NCC1(c3ccccc3)CC1)c(=O)n2Cc1ccccc1
→ -10% | 6%
COc1ccc(CCNC(=O)CCc2c(C)nc3c(-c4ccc(F)cc4)c(C)nn3c2C)cc1OC
→ -17% | -10%
CC1(C)CC(=O)c2cc(C#N)c(SCc3cc4c(cc3Cl)OCO4)nc2C1
→ 3% | -7%
COCCCNC(=O)c1c(NC(=O)Cc2coc3c(C)c(C)ccc23)sc2c1CCCC2
→ -11% | -7%
CCCN(CC(=O)NC(=O)Nc1ccc(C)c(C)c1)Cc1nnc(-c2cccs2)o1
→ 1% | 46%[activator]
COc1cc(OC)cc(-c2nnc(SCc3nc4ccccc4o3)o2)c1
→ 19% | -14%
COC(=O)c1ccc(Oc2nc(N(C)C)nc(N(C)C)n2)cc1
→ 18% | 19%
CC(=O)c1c[nH]c2ccc(Br)cc12
→ 0% | 8%
O=C(O)/C=C/C(=O)c1ccc(F)cc1
→ 6% | 11%
COc1cccc(CNC(=O)CCCn2nc(C)n3c(cc4sccc43)c2=O)c1
→ -8% | 0%
COc1ccc(-c2nnc(SCc3nc(C)no3)n2CCc2ccccc2)cc1
→ 10% | 60%[activator]
Cc1ccc(NC(=O)C2=C(c3ccccc3)NC(=S)NC2c2ccc(F)cc2)cc1 (stereo not given)
→ 18% | 25%
COc1ccc(CNC(=O)CCc2c(C)c3cc4c(C)coc4c(C)c3oc2=O)cc1OC
→ -7% | -3%
CC(C)(C)NC(=O)NC(=O)CSc1nc(-c2ccco2)nc2ccccc12
→ 16% | -35%
N#Cc1ccc(/C=N/Nc2nc(Nc3ccccc3)nc(N3CCCCC3)n2)cc1
→ 17% | 6%
CCOc1cccc(C2c3c(-c4ccccc4O)n[nH]c3C(=O)N2Cc2ccncc2)c1 (stereo not given)
→ 24% | 264%[activator]
CCOc1ccc(NC(=O)CSc2nc3ccccc3nc2N2CCOCC2)cc1
→ -11% | 1%

Sorted by heavy-atom count (falling): part of the list above
Results follow in this order: StopGo FLuc | 2A Renilla
CCn1cnc2c1c(=O)n(CC(=O)NCC1(c3ccccc3)CC1)c(=O)n2Cc1ccccc1
→ -10% | 6%
COc1ccc(-c2nnc(SCc3nc(C)no3)n2CCc2ccccc2)cc1
→ 10% | 60%[activator]
COC(=O)c1ccc(Oc2nc(N(C)C)nc(N(C)C)n2)cc1
→ 18% | 19%

(cont.)
Results follow in this order: StopGo FLuc | 2A Renilla
Cc1cc(-c2ccc(S(=O)(=O)N3CCN(c4ccccc4)CC3)s2)n[nH]1
→ 5% | 39%[activator]
Cc1ccc(OCCN(C)Cc2cc(=O)oc3c(C)c(O)ccc23)cc1
→ ? | ?
CCc1ccc(-c2ccccc2)nc1-c1ccccc1
→ 10% | 10%
CC(C1CC1)N(Cc1ccccc1)S(=O)(=O)c1cc(S(C)(=O)=O)ccc1Cl (stereo not given)
→ -2% | 48%[activator]
CC(C)Cn1cc(NC(=O)N2CCN(c3cccc(Cl)c3)CC2)c2ccccc2c1=O
→ -10% | -6%
COc1cc(-c2noc(-c3cc4cc(F)ccc4oc3=O)n2)cc(OC)c1OC
→ -20% | -13%
Cc1cc(C)cc(Oc2nc3ccccn3c(=O)c2/C=C(\C#N)c2nc3ccccc3s2)c1
→ -13% | -15%
Cc1ccc(-c2nc(SCC(=O)N3CCCC3c3ccc4c(c3)OCCCO4)n[nH]2)cc1 (stereo not given)
→ ? | ?
COc1ccccc1CCNC(=O)c1cc2ccccn2n1
→ 130%[activator] | 12%
COc1ccc(N(Cc2nc(-c3ccccc3)no2)S(=O)(=O)c2ccc3c(c2)OCCO3)cc1
→ 30% | 177%[activator]
CCc1nnc(SCc2nc(-c3ccc(OC)c(OC)c3)oc2C)c2cc3sc(C)cc3n12
→ 6% | -9%
CC(c1ccccc1)N(C)C(=O)/C=C/c1ccc(Br)s1 (stereo not given)
→ 54%[activator] | 178%[activator]
FC(F)(F)c1cc(Cl)c2nc(C34CC5CC(CC(C5)C3)C4)cn2c1
→ 19% | 4%
Cc1ccc(C2CCN(C(=O)Nc3ccc(Cl)c(Cl)c3)C2)cc1 (stereo not given)
→ 65%[activator] | 5%
O=C(CSc1n[nH]c(-c2cc(Br)ccc2O)n1)N1CCCCC1
→ 135%[activator] | 14%
Cc1ccc(C(=O)N/N=C/CC(C)C)cc1
→ 86%[activator] | -5%
COc1ccc(-c2nc3ccccc3s2)cc1NC(=O)c1cc2ccccc2o1
→ 23% | -10%
CC1=C(C(=O)NCc2ccc(Cl)cc2)C2(CCCCC2)OC1=O
→ -13% | -12%
O=C(Cn1nnnc1-c1ccccc1F)Nc1ccc(OC(F)(F)F)cc1
→ -15% | 2%
CCCCN(C)Cc1ccc(OCc2ccccc2)cc1
→ 58%[activator] | -9%[1.06 µM]
CC(C)(C)c1ccc(C(=O)N[C@H]2C[C@@H]3CC[C@H]2C3)cc1
→ 90%[activator] | 18%
Cc1ccc(Cl)cc1NC(=O)N1CCN(C(=O)c2nonc2N)CC1
→ -2% | -6%
CC(=O)NC(CC(=O)Nc1ccccc1C(C)(C)C)c1ccccc1 (stereo not given)
→ 9% | 2%
Cn1ccnc1CN(C1CC1)S(=O)(=O)c1cccc(Cl)c1F
→ -9% | -2%
C=CCn1c(C)cc(C(=O)COC(=O)c2csc(NCc3ccccc3)n2)c1C
→ 0% | 4%
CCCCn1c(-c2ccc(Cl)cc2)nc2c(=O)n(C)c(=O)[nH]c21
→ 252%[activator] | 22%
Oc1c(C(c2ccc(F)cc2)N2CCN(Cc3ccccc3)CC2)sc2nc(-c3ccco3)nn12 (stereo not given)
→ -13% | 14%
Clc1ccc(-c2nc(CN3CCCC3c3cccs3)co2)cc1 (stereo not given)
→ 39%[activator] | 6%
O=C(Cn1nc(-c2cccc([N+](=O)[O-])c2)c2ccccc2c1=O)Nc1cccnc1
→ -4% | -17%
COc1ccc(OC)c(CNS(=O)(=O)c2ccc(-c3coc(C)n3)cc2)c1
→ -4% | 16%
CNC(=O)CSc1nc(NC2CC2)c2ccccc2n1
→ 13% | 5%
O=c1oc2ccc(Br)cc2cc1-c1csc(Nc2c(F)cccc2F)n1
→ 47%[activator] | 25%
O=C1CC(c2ccccc2)Cc2[nH]c(=O)c(C(=O)Nc3cccc(Cl)c3)cc21 (stereo not given)
→ -3% | 1%
Cc1ccc(S(=O)(=O)N(CC(=O)Nc2ccccc2C(=O)O)c2cccc(Cl)c2)cc1
→ 8% | 21%
CCCN(C(=O)c1nn(-c2ccc(C)cc2)c(=O)c2c1c1ccccc1n2C)c1ccccc1C
→ 0% | -1%
COc1ccc(CCNC(=O)Cn2c(=O)c3sccc3n(CC(=O)Nc3cccc(C(F)(F)F)c3)c2=O)cc1OC
→ 31%[activator] | 4%
CC(=O)N1CCN(C(C(=O)O)c2cn(CC(=O)O)c3cc(Cl)ccc23)CC1 (stereo not given)
→ -1% | -6%
CCOC(=O)COc1ccc2c(=O)c(Oc3ccccc3OC)c(C)oc2c1
→ -4% | -7%
O=C(c1ccccc1-c1ncc(-c2ccc(F)cc2)o1)N1CCCC1
→ ? | ?
CN(C)C(=O)COC(=O)c1ccc2ccccc2n1
→ 4% | -7%
CCN1CCC(N(Cc2ccco2)C(=O)Nc2cc(Cl)ccc2C)CC1
→ -7% | -9%
CC(Cc1ccc(O)cc1)NCC(O)c1cc(O)cc(O)c1 (stereo not given)
→ -17% | -12%
CCOc1ccccc1C(=O)OCc1ccc(C(N)=O)cc1
→ 20% | 85%[activator]
Cn1c(CNC(=O)CCNC(=O)Cc2ccc(F)cc2)cc(=O)n(C)c1=O
→ -5% | -3%
CCN(CC)CCN1C(=O)C(=O)/C(=C(/O)c2ccc(OCc3cccc(C)c3)cc2)C1c1ccco1 (stereo not given)
→ 105%[activator] | -8%
Cc1ccc(C(=O)CCC(=O)NC2CCc3ccccc32)cc1C (stereo not given)
→ 21% | -10%
CCN(CC)CC1CCN(C(=O)c2cc3cccc([N+](=O)[O-])c3[nH]2)CC1
→ -13% | -12%
COc1cccc2cc(-c3ccc(OCC(=O)NCCN4CCOCC4)cc3)c(=O)oc12
→ 117%[activator] | 11%
Cc1ccc(NC(=O)CSc2c3c(nc4ccccc24)CCCC3)cc1F
→ -10% | 41%[activator]
Cc1ccc(C#CC(CC(=O)c2ccccc2)CC(=O)c2ccccc2)cc1
→ 14% | 199%[activator]
Cc1ccc(CNC(=O)C(CC(C)C)NC(=O)c2ccccc2C)cc1 (stereo not given)
→ 7% | -6%[1.06 µM]
Cn1ncc2c(Nc3cccc(C#N)c3)ncnc21
→ 0% | -2%
CNS(=O)(=O)c1cn(CC(=O)Nc2ccc(OC)cc2OC)cc1S(=O)(=O)NC
→ -20% | 14%
CC(NC(=O)CCC1CCCO1)C1CCCO1 (stereo not given)
→ 2% | -8%
Cc1ccc(Cn2ccnc2SCC(=O)Nc2ccc3c(c2)OCCO3)cc1
→ 46%[activator] | 16%
CCc1ccc(NC(=O)CSc2nc3ccsc3c(=O)n2C(C)CC)cc1 (stereo not given)
→ ? | 32%
CCCCCn1c(COc2ccc(Cl)cc2)n[nH]c1=S
→ 62%[activator] | 1%
Cc1cccc(NC(=O)c2sc(-n3nc(C)c(Cc4ccc5c(c4)OCO5)c3C)nc2C)c1C
→ 111%[activator] | -14%
Cc1ccc(C)c(NC(=O)Cn2ncc3c(C)n(Cc4ccc(F)cc4)c(C)c3c2=O)c1
→ -3% | -2%
O=C(COCc1cc(-c2ccco2)on1)Nc1cccc(Cl)c1Cl
→ 62%[activator] | 45%[activator]

New compounds follow.
Results follow in this order: StopGo FLuc | 2A Renilla
Cc1ccc2scc(N3CCCCC3)c(=O)c2c1
→ 131%[activator] | 36%[activator]
C=CCNc1nc(C(=O)OCC(=O)c2ccc(C(C)C)cc2)cs1
→ 15% | -5%
S=C(NCc1ccc(Cl)cc1)Nc1ccc(Cl)c(Cl)c1
→ ? | -43%
CCC(=O)Oc1ccc2c(c1)CC[C@@H]1[C@@H]2CC[C@@]2(C)[C@H]1C[C@@H](OC(=O)CC)[C@@H]2OC(=O)CC
→ 17%[11.5 µM] | -3%
Cc1ccc(NC(=O)CSc2ncccc2C(=O)Oc2ccccc2Cl)cc1Cl
→ 104%[activator] | 6%
COc1ccc(Cn2c(CCC(=O)Nc3cccc(Cl)c3)nc3cccnc32)cc1
→ -13% | -4%
Cc1ccc(-c2onc(C)c2C)cc1S(=O)(=O)Nc1ccccn1
→ -10% | 138%[activator]
O=S(=O)(CCCCCS(=O)(=O)c1ccccc1)c1ccccc1
→ 8% | 46%[activator]
Cc1ccc(CC(C(=O)NCCC23CC4CC(CC(C4)C2)C3)C(C)C(=O)O)cc1 (stereo not given)
→ 1% | 4%
C=CCN1CCN(C(=O)c2cccs2)CC1
→ -9% | 2%
O=C(O)C(c1c[nH]c2ccccc12)N1CCN(Cc2ccncc2)CC1 (stereo not given)
→ -11% | -14%
